AF4-AF9 inh: MLL-AF4/AF9 protein interaction inhibition. inhibition, % at 10 µM. P42568. AlphaScreen, biotin-AF4 peptide binding to FLAG-AF9. 0.47% of 350,000 active. AID 651704;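 active means every replicate reaching a set inhibition limit, whatever the replicate mean, cut at about 25% in these data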;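 further: 0% = plate neutral control median and 100% = total signal loss; the record names both 10 and 1 µM as test concentration; the first replicate is given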
Target sequence (P42568 whole entry, looked up): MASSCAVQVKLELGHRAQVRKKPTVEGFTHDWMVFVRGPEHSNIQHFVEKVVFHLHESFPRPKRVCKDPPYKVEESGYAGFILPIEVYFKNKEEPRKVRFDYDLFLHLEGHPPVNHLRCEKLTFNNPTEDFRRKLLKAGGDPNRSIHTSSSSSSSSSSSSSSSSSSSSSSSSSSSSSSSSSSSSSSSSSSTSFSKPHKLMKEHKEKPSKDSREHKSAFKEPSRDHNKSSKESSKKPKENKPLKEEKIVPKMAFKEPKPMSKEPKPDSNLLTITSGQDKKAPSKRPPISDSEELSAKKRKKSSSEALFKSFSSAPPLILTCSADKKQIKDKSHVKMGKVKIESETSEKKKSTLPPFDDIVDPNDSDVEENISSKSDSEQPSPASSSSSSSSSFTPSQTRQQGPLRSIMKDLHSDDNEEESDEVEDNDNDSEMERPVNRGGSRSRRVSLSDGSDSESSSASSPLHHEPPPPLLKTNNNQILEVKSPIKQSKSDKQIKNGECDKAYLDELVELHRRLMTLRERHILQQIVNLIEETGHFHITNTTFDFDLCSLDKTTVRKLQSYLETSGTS
rRNA inh HTS: inhibitors of bacterial rRNA selective over humanized ribosomes | E. coli WT GFP vs humanized-ribosome RFP mutants, fluorescence, 24 h; active compounds read low; DMSO median 0, no signal -100 | GFP signal change (wild-type ribosome), % (concentration not given with the values) | 1.6% of 350,000 active;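 active means significant combined selectivity score with lowered wild-type GFP, culture density cut under 30%, mutant RFP and density less affected; inactive means any of these conditions unmet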; further: one replicate is shown; some compounds called inactive have numbers as strong as hits
FGF22 binding: shifts melting point of recombinant human FGF22. Q9HCT0. AID 651658. calls only at 9.99 µM. 1.5% of 340,000 active. recombinant FGF22 thermal shift, SYPRO orange fluorescence; percent of sucrose octasulfate shift, DMSO zero;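 active means melting point raised past a set limit in the mean and every replicate; three in four hits are not shown here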
Target sequence (Q9HCT0 whole entry, looked up): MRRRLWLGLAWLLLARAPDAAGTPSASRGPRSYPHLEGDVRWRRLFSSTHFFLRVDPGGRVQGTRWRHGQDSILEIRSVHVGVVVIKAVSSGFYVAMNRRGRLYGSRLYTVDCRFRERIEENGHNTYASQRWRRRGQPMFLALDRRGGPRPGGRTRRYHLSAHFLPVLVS
rRNA inh HTS OD600: recorded beside rRNA inh HTS, whose call it bears; OD600 change, %; measured here: OD600 growth;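 optical density of the mix in the first replicate; 0 = DMSO median and -100 = no signal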
rRNA inh HTS RFP: further read-out of rRNA inh HTS, marked with its call; RFP signal change, %; measured here: RFP humanized mutant strains;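 first replicate; 0 = DMSO median and -100 = no signal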
Starred values were filed as active, the others as inactive; i = inactive; & = joins results of further samples. A portion of the library, so the mix of outcomes need not match the whole.

Values in the order – AF4-AF9 inh	rRNA inh HTS	rRNA inh HTS OD600	rRNA inh HTS RFP	FGF22 binding
[1] COCC(=O)Nc1ccc2c(c1)C(=O)N(C)[C@@H]1CC[C@H](CC(=O)NCC(F)(F)F)O[C@H]1CO2
  -1.5	1	0	2.7	i
[2] CCCCC(=O)N(C)c1c(C)nc2ccc(C(=O)NCCOc3ccc(OC)cc3)cn12
  -7.3	-1	6	1.8	i
[3] Cc1nc2cc3ccccc3cc2s1
  -2.3	7	8	3.4	i
[4] C[C@@H]1CN([C@H](C)CO)C(=O)c2cccc(NC(=O)Nc3ccc(F)cc3)c2O[C@@H]1CN(C)S(=O)(=O)c1ccccc1
  3.7	-2	-11	3.1	i
[5] COc1ccc(NC(=O)C[C@H]2CC[C@H]3[C@@H](COc4ccc(NC(C)=O)cc4C(=O)N3C)O2)cc1
  -0.4	-7	1	-3.2	i
[6] C[C@@H]1CN([C@H](C)CO)C(=O)c2cc(NC(=O)Nc3cccc4ccccc34)ccc2O[C@H]1CN(C)S(=O)(=O)c1cccs1
  -1.5	-3	-5	-1.6	i
[7] CCCNC(=O)[C@@H]1[C@@H](CO)[C@@H]2Cn3c(ccc(-c4ccc(F)cc4)c3=O)[C@@H]2N1C
  -0.5	0	-1	-0.3	i
[8] COc1ccc(NC(=O)Nc2ccc3c(c2)[C@H]2C[C@H](CC(=O)N4CCc5ccccc5C4)O[C@H](CO)[C@H]2O3)cc1
  11	-5	4	1.6	i
[9] Cc1c(NC(=O)C(C)OC(=O)c2ccc([N+](=O)[O-])cc2Cl)c(=O)n(-c2ccccc2)n1C (stereo not given)
  11	1	1	0.1	i
[10] C[C@H](CO)N1C[C@H](C)[C@@H](CN(C)Cc2ccc(C(=O)O)cc2)Oc2ccc(NC(=O)C3CC3)cc2C1=O
  2.7	4	7	-0.8	i
[11] CC(C)COC(=O)N(C)C[C@H]1OCc2ccccc2-c2c(n(C)c3ccccc23)C(=O)N([C@@H](C)CO)C[C@H]1C
  4.7	-4	-17	-0.1	i
[12] CCc1cnc(N2[C@H](C#N)[C@@H](c3ccccc3C3=CCCCC3)[C@@H]2CO)s1
  3.7	-12	-41	0.6	i
[13] Cc1cn([C@H]2C[C@H](O)[C@@H](/C=C/C(=O)NCc3cccc4ccccc34)O2)c(=O)[nH]c1=O
  -0.8	8	4	0.7	i
[14] CCOC(=O)C1CCN(C(=O)CCn2c(=O)oc3ccccc32)CC1
  1.5	-2	9	4.5	i
[15] COc1ccc(CN(C)C[C@@H]2Oc3ccc(NS(=O)(=O)c4ccccc4)cc3CC(=O)N([C@H](C)CO)C[C@@H]2C)cc1
  0.5	6	11	-0.3	i
[16] CC(C)(O)C#Cc1ccc([C@H]2[C@@H](CO)N3CCCCN(C(=O)c4cccc(F)c4)C[C@H]23)cc1
  -6.5	3	4	-3.7	i
[17] CC(=O)N(C[C@@H]1N[C@@H](CO)[C@@H]1c1ccc(-c2ccc(F)cc2)cc1)C(C)C
  1.3	-1	-6	0.1	i
[18] CCNC(=O)C1(C)CCN(C(=O)c2cccc(OC(F)(F)F)c2)C1 (stereo not given)
  -1.1	5	19	-2.9	i
[19] COc1ccc(-c2nnc(SCC(=O)NC3CCCCC3)n2N)cc1
  -17	1	4	0.4	i
[20] CCCNC(=O)N1CC2(C1)[C@@H](c1ccccc1)[C@@H](CO)N2CC1CCCC1
  1.8	-2	-6	3.3	i
[21] CCc1cnc(N2[C@H](C#N)[C@H](c3ccccc3)[C@@H]2CO)s1
  0.5	-7	0	-0.4	i
[22] CCC(=O)N(C)C[C@@H]1Oc2cc(-c3ccccc3F)ccc2S(=O)(=O)N([C@@H](C)CO)C[C@H]1C
  1.4	-7	-24	-3.4	i
[23] O=C(Nc1ccc2c(c1)[C@H]1C[C@@H](CC(=O)N3CCc4ccccc4C3)O[C@H](CO)[C@H]1O2)Nc1ccccc1F
  -1.6	-8	-15	8.0	i
[24] C[C@H]1CN([C@@H](C)CO)C(=O)c2cccc(NC(=O)c3ccncc3)c2O[C@H]1CN(C)Cc1ccccc1
  -3.5	3	-2	0.0	i
[25] COc1ccc(NC(=O)N(C)C[C@H]2Oc3c(NC(=O)C4CC4)cccc3C(=O)N([C@@H](C)CO)C[C@H]2C)cc1
  -1.8	0	4	-0.1	i
[26] Cc1ccc2c(c1)C1(SC(C)C(=O)N1c1ccc(Cl)cc1)C(=O)N2 (stereo not given)
  5.0	-20	-30	1.0	i
[27] C[C@H](CO)N1C[C@H](C)[C@@H](CN(C)C(=O)Nc2ccccc2)Oc2ncc(Br)cc2C1=O
  -4.6	6	14	-4.5	i
[28] COc1cc(CNCc2ccncc2)ccc1OCC(N)=O
  3.9	3	12	0.7	i
[29] O=C(C[C@H]1CC[C@H](NC(=O)C2CCC2)[C@H](CO)O1)NC1CCC1
  -2.3	2	4	-3.4	i
[30] C[C@H]1CN([C@@H](C)CO)C(=O)c2cc(/C=C/c3ccccc3)cnc2O[C@H]1CN(C)Cc1cncnc1
  -1.0	-1	2	-2.8	i
[31] CCNC(=O)C1(C)CCN(C(=O)c2ccc3ccccc3c2)C1 (stereo not given)
  1.1	6	7	-1.7	i
[32] Cc1ccc(S(=O)(=O)N[C@H]2CC[C@H](CCn3cc(C4CCCCC4)nn3)O[C@@H]2CO)cc1
  -0.9	-2	-12	-0.3	i
[33] CCC(=O)N1[C@@H]2CN(C(=O)Nc3cccc(Cl)c3)c3ccccc3[C@@H]2[C@@H]1CO
  1.6	-54	-76	-16	i
[34] C[C@@H]1CN([C@@H](C)CO)C(=O)c2cc(NC(=O)Nc3cccc4ccccc34)ccc2O[C@H]1CN(C)Cc1ccc(C(=O)O)cc1
  1.5	-2	3	1.0	i
[35] Cc1noc(C)c1S(=O)(=O)N(C)C[C@@H]1Oc2ccc(NC(=O)C3CCCCC3)cc2CC(=O)N([C@@H](C)CO)C[C@@H]1C
  -0.1	0	0	-1.1	i
[36] Cc1ccc(-c2ccc([C@H]3[C@H](CO)N4CCCCN(C(=O)c5ccc(F)cc5)C[C@@H]34)cc2)cc1
  7.4	-60	-76	-11	i
[37] Cc1ccc(NC(=O)C2CC(=O)N(c3ccccc3Cl)C2)cc1S(=O)(=O)N1CCOCC1 (stereo not given)
  -1.5	-1	1	-2.9	i
[38] CCCNC(=O)C[C@@H]1C[C@@H]2c3cc(NC(=O)CC4CC4)ccc3O[C@@H]2[C@@H](CO)O1
  1.4	2	1	-2.0	i
[39] Cc1noc(C)c1S(=O)(=O)Nc1cccc2c1O[C@@H](CN(C)C(=O)Nc1ccc(C(F)(F)F)cc1)[C@@H](C)CN([C@H](C)CO)C2=O
  0.1	-2	1	-0.4	i
[40] CCC(=O)N1[C@H](CO)[C@@H](c2ccccc2)[C@@H]1CN(CC)C(=O)NC1CCCC1
  -5.2	-2	-2	-0.8	i
[41] CO[C@@H]1CN(C)C(=O)c2ccc(NC(=O)Nc3ccccc3F)cc2OC[C@H](C)N(C(C)=O)C[C@@H]1C
  1.2	-2	-7	0.7	i
[42] C[C@H]1CN([C@@H](C)CO)C(=O)c2cc(NC(=O)CCN3CCOCC3)ccc2O[C@H]1CN(C)CC1CC1
  -2.4	5	8	-1.8	i
[43] COc1cc(NC(=O)c2ccc(-c3cn[nH]c3)c3ccoc23)cc(OC)c1OC
  0.9	-19	-24	-1.7	i
[44] COCc1cn(CC[C@@H]2CC[C@H](NC(=O)c3ccc(F)cc3)[C@@H](CO)O2)nn1
  -5.5	2	1	-1.8	i
[45] N#C[C@H]1[C@@H](c2ccccc2-c2cccc(F)c2)[C@@H](CO)N1C(=O)Cc1cccnc1
  -0.2	-1	5	3.7	i
[46] C[C@@H]1CN([C@@H](C)CO)C(=O)c2cc(NC(=O)NC3CCCCC3)ccc2O[C@@H](C)CCCCO[C@H]1CN(C)C(=O)C1CCCCC1
  -9.6	0	4	-1.8	i
[47] O=C1/C(=C/c2ccccc2)CN(C(=O)CCN2CCOCC2)C/C1=C\c1ccccc1
  3.0	-55	-74	-16	i
[48] NC(=S)NN=CCn1cc([N+](=O)[O-])c(=O)[nH]c1=O
  -11	22	29	2.0	i
[49] Cc1noc(C)c1C(=O)N1CCCC(C)(C(=O)NS(=O)(=O)C2CC2)C1 (stereo not given)
  -3.5	3	10	-3.2	i
[50] C=CCn1c(-c2cccc(S(=O)(=O)N3CCOCC3)c2)n[nH]c1=S
  -12	5	14	1.4	i
[51] CCCNC(=O)N1CCC2(CC1)CN(C(=O)CC)[C@@H](CO)c1c2c2ccc(OC)cc2n1C
  -13	-1	6	-0.5	i
[52] COc1cccc(S(=O)(=O)N(C)C[C@H]2OCc3cnnn3CCCC(=O)N([C@@H](C)CO)C[C@H]2C)c1
  -1.0&-1.7	4&-3	6&-1	3.5&-3.4	i
[53] O=C(C[C@H]1C[C@H]2c3cc(NC(=O)c4ccc5c(c4)OCO5)ccc3O[C@H]2[C@@H](CO)O1)NCCN1CCCCC1
  2.9	-4	5	0.9	i
[54] c1cc(-c2ccc(C3[C@H]4CNC[C@@H]3N4CC3CCCCC3)cc2)ccn1 (stereo not given in full)
  29*	1&4	5&25	-0.5&1.4	i
[55] CC(=O)NC[C@@H]1[C@@H](c2ccc(-c3ccccc3)cc2)[C@H](CO)N1C(=O)C1CCC1
  0.7	-4	-5	4.1	i
[56] Cc1ccc(S(=O)(=O)N(C)C[C@H]2Oc3cc(C#CC4CCCC4)ccc3S(=O)(=O)N([C@@H](C)CO)C[C@H]2C)cc1
  -1.4	5	-1	2.3	i
[57] C[C@@H]1CN([C@@H](C)CO)C(=O)c2cc(N(C)C)ccc2O[C@@H]1CN(C)Cc1ccccc1
  2.9	3	0	-0.3	i
[58] O=C(C[C@H]1C=C[C@@H](NC(=O)CN2CCOCC2)[C@H](CO)O1)NCCc1ccccc1
  0.0	-4	6	-3.6	i
[59] Cc1ccc(-c2ccc([C@H]3[C@H](CO)N4C(=O)CN(C(=O)NC(C)C)C[C@@H]34)cc2)cc1
  -0.7	-1	2	-3.1	i
[60] Cc1ccc(C(O)c2ncc(-c3cccc4ccccc34)[nH]2)cc1F (stereo not given)
  6.6	-30	-40	-8.0	i
[61] CCCCCCCCN1C(=O)[C@H](CC(=O)NCC2CCCCC2)C[C@@]2(C(=O)OCC)CCC=C12
  -1.6	17	14	4.1	i
[62] COc1ccc(S(=O)(=O)Nc2ccc3c(c2)C(=O)N([C@@H](C)CO)C[C@H](C)[C@H](CN(C)Cc2ccc(C(=O)O)cc2)OCCCC[C@H](C)O3)cc1
  -12	5	8	-0.2	i
[63] CO[C@@H]1CN(C)C(=O)c2ccc(NC(=O)C3CC3)cc2OC[C@@H](C)N(C(=O)C2CCOCC2)C[C@H]1C
  -0.3	2	1	-1.7	i

Arranged by number of heavy atoms (falling): 9 of the compounds above.
Values in the order – AF4-AF9 inh	rRNA inh HTS	rRNA inh HTS OD600	rRNA inh HTS RFP	FGF22 binding
[62] COc1ccc(S(=O)(=O)Nc2ccc3c(c2)C(=O)N([C@@H](C)CO)C[C@H](C)[C@H](CN(C)Cc2ccc(C(=O)O)cc2)OCCCC[C@H](C)O3)cc1
  -12	5	8	-0.2	i
[52] COc1cccc(S(=O)(=O)N(C)C[C@H]2OCc3cnnn3CCCC(=O)N([C@@H](C)CO)C[C@H]2C)c1
  -1.0&-1.7	4&-3	6&-1	3.5&-3.4	i
[51] CCCNC(=O)N1CCC2(CC1)CN(C(=O)CC)[C@@H](CO)c1c2c2ccc(OC)cc2n1C
  -13	-1	6	-0.5	i
[47] O=C1/C(=C/c2ccccc2)CN(C(=O)CCN2CCOCC2)C/C1=C\c1ccccc1
  3.0	-55	-74	-16	i
[59] Cc1ccc(-c2ccc([C@H]3[C@H](CO)N4C(=O)CN(C(=O)NC(C)C)C[C@@H]34)cc2)cc1
  -0.7	-1	2	-3.1	i
[55] CC(=O)NC[C@@H]1[C@@H](c2ccc(-c3ccccc3)cc2)[C@H](CO)N1C(=O)C1CCC1
  0.7	-4	-5	4.1	i
[49] Cc1noc(C)c1C(=O)N1CCCC(C)(C(=O)NS(=O)(=O)C2CC2)C1 (stereo not given)
  -3.5	3	10	-3.2	i
[50] C=CCn1c(-c2cccc(S(=O)(=O)N3CCOCC3)c2)n[nH]c1=S
  -12	5	14	1.4	i
[48] NC(=S)NN=CCn1cc([N+](=O)[O-])c(=O)[nH]c1=O
  -11	22	29	2.0	i
